Screening results as filed in PubChem BioAssay.
Six1-Eya2 blk = qHTS Assay for Inhibitors of the Six1/Eya2 Interaction; activity change, % (concentration not given with the values); AlphaScreen GST-Six1/His-Eya2 binding, biochemical; stronger effect = lower value; control for the full effect not named in the record; 360,000 tested, 0.56% active; Homeobox protein SIX1 (Homo sapiens) + Protein phosphatase EYA2 (Homo sapiens), …; in the data active = activity change below about -65%; inconclusive = about -30% to -65%; inactive = above about -30%; also: % is scaled to controls: 0 for no effect and ±100 for the full control effect
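GST-Six1 + His-Eya2 (5X stock: 250/500 nM); Tris pH 8.0, 300 mM NaCl, 0.05% BSA, 0.02% Tween 20; GSH donor/Ni acceptor beads; 1 h 37 °C dark; AlphaScreen readout.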
TRPV1 potentiator = HTS Assay for Compounds that Act as Potentiators of the Vanilloid Receptor 1. Transient receptor potential cation channel subfamily V member 1 (Homo sapiens), Q8NER1. TRPV1-expressing cells, Fluo-8 calcium influx, capsaicin EC20 potentiation; host cell line not named in the record; control for the full effect not named in the record. potentiation, % at 8.33 µM. 320,000 tested, 0.02% active; active means potentiation above 80%; inconclusive means 30% to 80%; inactive means below 30%; also: 0% is about no effect
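Fluo-8 calcium influx in TRPV1-expressing cells, kinetic read (ex 480/em 520 nm). Compound added and read 3 min for agonist activity, followed by capsaicin at EC20 final and 2 min further read for enhancement.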
TRPML1 blocker = qHTS for Inhibitors of the Human Mucolipin Transient Receptor Potential 1 (TRPML1); Mucolipin-1 (Homo sapiens), Q9GZU1; TRPML1-inducible cells, Ca2+ dye fluorescence, FDSS; stronger effect = lower value; inhibition of EC80 agonist-evoked calcium signal; activity change, negative = inhibition, % (concentration not given with the values); 390,000 tested, 0.02% active; AID 624415, 2012; in the data active means activity change below about -50%; inconclusive means about -30% to -50%; inactive means above about -30%;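 also: stimulus is agonist 54-4 at its EC80 concentration; % is scaled to controls: 0 for no effect and ±100 for the full control effect; compound concentration not given in the record; the text of the record puts the active cut at -80%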
Target sequence (Q9GZU1 whole entry, looked up): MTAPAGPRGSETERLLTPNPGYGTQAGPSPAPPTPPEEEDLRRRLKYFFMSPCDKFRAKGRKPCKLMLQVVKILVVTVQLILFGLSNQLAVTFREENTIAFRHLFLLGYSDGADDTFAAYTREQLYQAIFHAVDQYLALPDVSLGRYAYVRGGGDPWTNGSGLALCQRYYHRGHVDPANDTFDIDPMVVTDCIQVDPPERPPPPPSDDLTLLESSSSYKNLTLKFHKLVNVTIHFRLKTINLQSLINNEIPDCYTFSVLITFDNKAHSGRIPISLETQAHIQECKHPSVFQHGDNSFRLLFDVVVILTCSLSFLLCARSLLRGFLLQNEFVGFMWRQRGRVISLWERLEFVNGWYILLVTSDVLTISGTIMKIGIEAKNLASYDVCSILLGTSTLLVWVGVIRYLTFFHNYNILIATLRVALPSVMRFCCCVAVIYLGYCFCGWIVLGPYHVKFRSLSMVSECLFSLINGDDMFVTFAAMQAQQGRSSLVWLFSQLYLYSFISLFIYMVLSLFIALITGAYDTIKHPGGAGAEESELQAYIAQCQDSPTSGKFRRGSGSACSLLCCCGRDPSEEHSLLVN
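Tet-induced TRPML1-DL cells loaded with Ca8 no-wash calcium dye were read kinetically on FDSS. Compound addition was followed by EC80 agonist 54-4 (4 uM final); inhibition was read over 110 s.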
D2 potentiator = Beta-Arrestin HTS for Positive Allosteric Modulators of the Human D2 Dopamine Receptor: Potentiators; D(2) dopamine receptor (Homo sapiens), P14416; DiscoveRx D2 beta-arrestin cells, luminescence, 90 min; 100% = 57 uM dopamine signal; potentiation, % (no concentration beside the values); 360,000 tested, 0.23% active; active = potentiation of 50% or more; inconclusive = 30% to 50%; inactive = 30% or less;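 also: compound concentration not given in the record; tested on top of an EC20 dose of dopamine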
Target sequence (P14416 whole entry, looked up): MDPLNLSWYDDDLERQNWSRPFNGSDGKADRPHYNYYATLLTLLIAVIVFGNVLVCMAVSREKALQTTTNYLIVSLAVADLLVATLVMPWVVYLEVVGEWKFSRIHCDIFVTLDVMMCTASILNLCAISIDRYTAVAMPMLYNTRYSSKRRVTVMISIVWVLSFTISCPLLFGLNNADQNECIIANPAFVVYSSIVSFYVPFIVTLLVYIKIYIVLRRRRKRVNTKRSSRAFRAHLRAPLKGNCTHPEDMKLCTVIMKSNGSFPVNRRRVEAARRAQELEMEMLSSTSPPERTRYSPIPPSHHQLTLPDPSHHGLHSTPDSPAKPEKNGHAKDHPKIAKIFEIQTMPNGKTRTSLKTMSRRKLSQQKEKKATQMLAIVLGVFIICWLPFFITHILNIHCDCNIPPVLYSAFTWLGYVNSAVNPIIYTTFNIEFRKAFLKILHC
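PathHunter D2 cells, attached overnight at 37 deg C, received compound in DMSO plus dopamine at EC20 (50 nM final) for 90 min at 37 deg C. Beta-arrestin recruitment was read as luminescence after 1 h with detection reagent at ambient temperature.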
TRPML1 ag = qHTS for Agonists of the Human Mucolipin Transient Receptor Potential 1 (TRPML1). AID 624414, 2012. 410,000 tested, 0.12% active. activation, % (test concentration not listed). TRPML1-expressing cells, Ca2+ dye fluorescence, FDSS; host cell line not named in the record; reference of the full effect not given here. Mucolipin-1 (Homo sapiens), Q9GZU1; in the data active = activation above about 50%; inconclusive = about 30% to 50%; inactive = below about 30%; also: 0% is about no effect; the text of the record puts the active cut at 80%
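Tet-induced TRPML1-DL cells, 1,500 per well, cultured overnight, were loaded with a no-wash Ca2+ dye for 45–90 min. Calcium fluorescence was recorded on the FDSS for 110 s after compound addition, before the EC80 agonist (4 uM 54-4) was added.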
CtBP-E1A blk = qHTS Assay for Inhibitors of the CtBP/E1A Interaction; CtBP / adenovirus E1A interaction (AlphaScreen); AlphaScreen GST-E1A/His-CtBP binding, 1536-well; stronger effect = lower value; control for the full effect not named in the record; activity change, % (test concentration not listed); 340,000 tested, 0.49% active; in the data active means activity change below about -65%; inconclusive means about -30% to -65%; inactive means above about -30%; also: % is scaled to controls: 0 for no effect and ±100 for the full control effect; compound concentration not given in the record
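AlphaScreen with 125 nM GST-E1A and 125 nM His-CtBP (5X stocks) in Tris pH 8.0, 300 mM NaCl, BSA, Tween 20, TCEP. Compounds preincubated 2 h at 37 deg C, then glutathione donor/nickel acceptor beads added for 1 h at 37 deg C in dark.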
* marks the source's active call; other numbers are inactive results; u = inconclusive; x = not tested or not shown; & = joins results of further samples.

SMILES	Six1-Eya2 blk	TRPV1 potentiator	TRPML1 blocker	D2 potentiator	TRPML1 ag	CtBP-E1A blk
Cc1ccc(CNC(=O)C(OC(=O)c2ccco2)C(C)C)cc1 (configuration not stated)	3	11	1	-3	0.3	-1
Nc1cc(N)nc(SCC(=O)NCc2ccc3c(c2)OCO3)n1	-1	x	4	-1	-0.1	-5
O=C(CN1CCN(S(=O)(=O)c2ccc(Br)cc2)CC1)N/N=C/c1cc([N+](=O)[O-])ccc1Cl	-14	-2	23	-22	1.8	-4
O=C(NC(Cc1c[nH]c2ccccc12)C(=O)O)/C(=C/c1ccco1)NC(=O)c1ccccc1 (configuration not stated)	0	4	8	-4	0.6	-2
CCN1C(=O)/C(=C2/Sc3ccc(OC)cc3N2C)SC1=Nc1cccc(O)c1	-11	13	0	2	-0.5	7
CC1=C(C(=O)O)N2C(=O)C(NC(=O)c3c(F)cccc3F)C2SC1 (configuration not stated)	7	8	-7	-9	-0.8	1
COC(=O)C1=C(C(=O)OC)[C@@H]2N(C)c3ccc(OC)cc3[C@@]23C[C@@H](C(=O)OC)N(C(=O)c2ccco2)C3=N1	-7	x	-5	-13	-0.8	-1
CCCN(CC1CC1)C(=O)COC(=O)c1ccc2c(c1)C(=O)N(c1ccc(OCC)cc1)C2=O	-1	-4	-12	-2	0.1	-3
CC(=O)c1cccc(NC(=O)CN2C(=O)C(=O)N(Cc3ccco3)C2=O)c1	-14	7	-9	4	-1.0	x
C[C@@H](C(=O)NC1CCN(Cc2ccccc2)CC1)N1C(=O)N2CCc3c([nH]c4ccccc34)[C@@]2(C)C1=O	-7	1	x	-86	x	-12
CCOC(=O)c1c(NC(=O)Cn2nnc(-c3ccc(Cl)cc3)n2)sc(CC)c1C	9	10	-3	-8	1.5	-1
CCOC(=O)c1ccc(NC(=O)COC(=O)c2cccc(Oc3ccccc3)c2)cc1	0	-6	15	4	0.0	7
Cc1nc2sc(C(c3ccccc3)N3CCOCC3)c(O)n2n1 (configuration not stated)	3	0	0	-11	0.4	11
O=c1cc(O)c2sc3nc(-c4ccccc4)cc(C(F)(F)F)c3c2[nH]1	8	2	-3	4	1.3	-5
Cc1nn(Cc2cccc(C(=O)Nc3ccn(Cc4c(F)c(F)cc(F)c4F)n3)c2)c(C)c1[N+](=O)[O-]	-2	16	-5	-1	2.4	-5
CCOc1ccccc1N1CCN(C(=O)c2cn(CC3CCCCC3)nn2)CC1	-2	-5	3	-21	1.6	-5
CCCCOCCCNC(=O)N[C@@H](CC(C)C)C(=O)O	0	-6	1	-1	-0.5	11
Cc1ccc(SCc2nc3ccccc3n2CC(=O)Nc2ccccc2)cc1	0	17	19	-9	4.7	-7
O=C(C[n+]1ccc(/C=N/O)cc1)N(Cc1ccccc1)Cc1ccccc1	10	7	43	-10	1.9	0
Cc1ccc(S(=O)(=O)Nc2ccccc2C(=O)NCc2cccnc2)cc1	-11	u	-16	-5	-0.3	-2
C/C(=N\NC(=O)CC#N)c1cc2ccc(O)cc2oc1=O	-27	-2	15	1	2.2	-12
COc1ccc(C(=O)N2CCN(c3cccc(Cl)c3)CC2)cc1	-5	-19	-8	-12	-0.3	6
Cn1c(=O)[nH]c(=O)c2c1nc(SCC(=O)Nc1ccccc1)n2Cc1ccccc1	-16	14	-21	-10	-0.9	1
Cc1ccc(NC(=O)[C@@H](C)NC(=O)[C@@H]2Cc3ccccc3CN2)cc1	8	3	9	1	0.0	x
Cc1ccc2occ(/C=N/NC(=O)c3ccc(O)cc3)c(=O)c2c1	2	-26	3	-21	-0.9	-5
COCC(C)NCc1cccc([N+](=O)[O-])c1 (configuration not stated)	10	-1	18	-12	0.8	-4
CCOc1ccc(/C=C2/C(=N)N3OC(C)=CC3=NC2=O)cc1OC	1	6	4	-1	4.9	13
CC1CCN(c2nc(Cl)nc(Nc3ccc([N+](=O)[O-])cc3)n2)CC1	-1	-15	1	5	-0.6	1
CNCc1ccccc1Sc1ccc(OC)cc1	4	15	-6	-7	2.0	10
NC(=O)CSc1nnc2ccc(-c3ccco3)nn12	-4	10	0	-9	-0.5	-11
CC(C)C[C@H]1COCCS(=O)(=O)N1Cc1cccc(C(F)(F)F)c1	8	x	24	0	0.5	9
CCOc1ccc(-n2c(SCC(N)=O)nnc2-c2ccco2)cc1	8	4	-13	-5	0.3	6
CCOC(=O)C1CCCN(c2c(NCCN3CCCCC3CC)c(=O)c2=O)C1 (configuration not stated)	-9	5	14	-6	-0.4	5
CCOC(=O)[C@@H]1CCN(Cc2ccccc2)C[C@H]1c1ccccc1	0	-15	8	-15	-0.6	1
CCc1c(C)nc(N2CCN(c3cccc(OC)c3)CC2)[nH]c1=O	-7	-8	x	u	x	x
CC(=O)NCCn1c(SCC(=O)NCCc2ccc(S(N)(=O)=O)cc2)nc2ccccc2c1=O	9	4	-6	-2	0.7	4

3 of the compounds above, comma-delimited:
Compound,Six1-Eya2 blk,TRPV1 potentiator,TRPML1 blocker,D2 potentiator,TRPML1 ag,CtBP-E1A blk
CCOC(=O)[C@@H]1CCN(Cc2ccccc2)C[C@H]1c1ccccc1,0,-15,8,-15,-0.6,1
CCOc1ccc(-n2c(SCC(N)=O)nnc2-c2ccco2)cc1,8,4,-13,-5,0.3,6
CNCc1ccccc1Sc1ccc(OC)cc1,4,15,-6,-7,2.0,10

New compounds follow
SMILES	Six1-Eya2 blk	TRPV1 potentiator	TRPML1 blocker	D2 potentiator	TRPML1 ag	CtBP-E1A blk
O=c1[nH]ncn2cccc12	0	x	12	-2	-0.4	0
CCC(=O)N1CCC1(C)C(=O)Nc1cccc(Oc2ccccc2)c1 (configuration not stated)	10	x	x	-5	-0.8	-15
CCCCN1C(=O)N(c2ccccc2Cl)C(C)(O)CC1(C)C (configuration not stated)	7	-25	-20	-8	2.6	x
Cc1ccc2oc(C(=O)N(Cc3ccccc3)C3CCS(=O)(=O)C3)c(C)c2c1 (configuration not stated)	-2	-4	-13	-8	-0.1	0
CCOC(=O)C1CCN(C(=O)c2oc3ccc(S(=O)(=O)N4CCCCCC4)cc3c2C)CC1	0	-22	9	-7	0.8	1
CCCN(CCC)S(=O)(=O)c1ccc2c(c1)CCCN2C(C)=O	1	3	0	5	-0.9	11
CCOC(=O)C(=NC1CCS(=O)(=O)C1)NNc1ccccc1Cl (configuration not stated)	2	0	x	1	x	7
Cc1ccc([C@@H]2CC=C(C(=O)O)[C@H](c3ccc(Cl)cc3)N2S(=O)(=O)c2ccc(C)cc2)cc1	25	28	-5	-1	0.2	0
COc1ccc(CC(=O)NNS(=O)(=O)c2ccc3ccccc3c2)cc1OC	-11	-10	9	-9	0.3	0
COc1cccc(C(=O)Nc2cc(C(=O)NCCc3ccccc3)ccc2Cl)c1	4	-4	-5	-1	1.5	4
COc1nccnc1NS(=O)(=O)c1ccc(NC(=S)NC(=O)/C=C/c2ccccc2)cc1	-3	-12	-8	-5	-0.4	u
C=C(CN(C)C)C(=O)c1ccc(C)cc1C	3	x	24	-37	3.6	5
COc1ccc(C(=O)COC(=O)c2ccccc2C(=O)N(C)c2ccccc2)c(OC)c1	-5	19	19	-28	1.2	-3
Cc1ccc(-c2nc(CS(=O)(=O)CC(=O)N3CCOCC3)c(C)o2)cc1	5	-5	6	6	-0.3	5
CCC1(CC)C(C#N)C(=O)NC(=O)C1C#N (configuration not stated)	2	x	0	-6	1.8	10
COC(=O)C1=C(C)N(Cc2ccccc2)C(=S)N[C@H]1c1ccc(Br)cc1	-21	12	-3	-7	0.1	-10
CC1(C)C(CC(=O)O)CC1C(=O)O (configuration not stated)	8	x	3	4	0.0	3
Cc1ccc(Cl)cc1NC(=O)Nc1c(C)n(C)n(-c2ccccc2)c1=O	-3	-4	0&-14	-21	-0.1&0.5	3
COc1ccc(CNC(=O)c2sc(=O)n(Cc3cc(C(C)=O)ccc3OC)c2C)cc1	-15	x	x	0	-0.9	-10
CCOCCCNC(=O)C(c1ccccc1)N(Cc1cccs1)C(=O)CNC(C)=O (configuration not stated)	3	11	-2	-3	-0.6	6
COC(=O)c1cc(S(=O)(=O)Nc2cc(S(=O)(=O)N(C)C)ccc2C)oc1C	3	14	13	0	0.3	3
COC(=O)C1CCN(C(=O)CN2C(=O)NC3(CCC(C)CC3)C2=O)CC1 (configuration not stated)	-2	x	37	-7	0.1	0
COc1ccc(N(C)S(=O)(=O)c2cccc(C(=O)NCc3ccc4c(c3)OCO4)c2)cc1	48	-6	-9	5	2.0	0
COc1ccc(S(=O)(=O)Nc2cc(C(=O)NC3CCCCCC3)ccc2N2CCOCC2)cc1	-8	-2	65	-12	1.0	0
O=C(Cc1ccc(F)cc1)c1ccc(O)cc1O	0	4	3	7	0.7	5
Cc1cccc(OCC(=O)NNC(=O)c2ccc3nc[nH]c3c2)c1	8	-6	-12	-1	-0.1	-15
O=C(OCC1OC(n2ccc(=O)[nH]c2=O)C(O)C1OC(=O)c1ccccc1)c1ccccc1 (configuration not stated)	-2	-3	-16	9	-0.3	4
Cc1ccc(NC(=O)CN(C)Cc2ccc(Cl)cc2)cc1	4	-8	-4	-2	2.5	9
O=C(COC(=O)/C=C/c1cccc(Br)c1)NC1CCCCCC1	1	-4	6	-3	1.5	-4
CC(C)(C)c1ccc(OCCCC(=O)Nc2nnc(C3CC3)s2)cc1	5	x	10	-9	0.4	-3
O=C1CN(C(=O)c2ccc(Br)o2)C(c2ccc(F)cc2)c2cc(F)ccc2N1 (configuration not stated)	-6	-8	-1	-10	0.2	-8
Cn1cc([N+](=O)[O-])c(C(=O)NCc2ccco2)n1	-9	5	-9	6	-0.4	12
Cc1c(C(=O)OCC(=O)Nc2cccc(S(N)(=O)=O)c2)oc2c1ccc1ccccc12	-10	0	10	-16	0.6	x
O=c1oc2ccccc2c(Nc2ccccc2O)c1[N+](=O)[O-]	9	16	7	-29	-0.2	-6
CCOc1ccc2[nH]c(C)c(CN3CCOCC3)c(=O)c2c1	-12	-2	8	1	0.4	-6
CC(C)=CC(=O)Nc1nnc(-c2ccc(F)cc2)s1	3	1	1	-10	-0.2	6
Cc1ccc(C)c(CN2C(=O)c3ccccc3S(=O)(=O)c3ccc(C(=O)N4CCN(C)CC4)cc32)c1	5	23	-11&-10	-18	0.1&1.2	x
COc1ccccc1Nc1cc(C)nc2c(C)cccc12	22	x	24	-18	-1.1	31
O=C(/C=C/c1ccccc1)NC(=S)Nc1ccc(N2CCOCC2)c(Cl)c1	8	4	8	8	0.1	-2
CO/N=C/C=C1/N(C)c2ccccc2C1(C)C	-4	-2	17	-5	0.5	-8
